Screening results (PubChem BioAssay)
2A Renilla – Primary qHTS Assay for Foot and Mouth Disease Virus Antivirals against NCGC Sytravon and CBC Compound Libraries: Renilla Luciferase Signal. HEK cells with a luciferase reporter of 2A StopGo recoding. Potency, µM (top dose mostly 57.5 µM), without a hit: top-dose signal change, negative = less light. 120,000 tested, 0.32% active. AID 1745857, 2022; active means well fitted falling curve with a large enough effect; inconclusive means small, poorly fitted or top-dose-only effect; inactive means no such curve, though single readings can be large or run the other way; further: nearly all actives have a fitted effect of over 55% in size; overnight with compound
2A firefly – Primary qHTS Assay for Foot and Mouth Disease Virus Antivirals against NCGC Sytravon and CBC Compound Libraries: Firefly Luciferase Signal | AID 1745856, 2022 | Potency, µM (doses to about 57.5 µM), without a hit: at the top dose signal change, negative = less light | 120,000 tested, 0.23% active | HEK cells with a luciferase reporter of 2A StopGo recoding; active = well fitted falling curve with a large enough effect; inconclusive = small, poorly fitted or top-dose-only effect; inactive = no such curve, though single readings can be large or run the other way; further: nearly all actives have a fitted effect of over 60% in size; overnight with compound
Starred values were filed as active, the others as inactive; ? = inconclusive; [ ] = another dose, or the depositor's remark. On the % scale 0 is the no-effect control and ±100 the full control effect; potency means the concentration at half of the fitted maximal effect.

Each structure is followed by: 2A Renilla	2A firefly
COc1ccccc1NC(=O)CSc1oc(-c2cccs2)nc1S(=O)(=O)c1ccccc1
    51%[activator]	-15%
Cc1ccc(CN(C)C(=O)c2cnc3ccccc3n2)c(C)c1
    43%[activator]	0%
CC(C)(C)C(=O)Nc1cccc(NC(=O)c2cc(F)c(Cl)cc2Cl)c1
    14%	16%
CCOC(=O)C1CCCN(C(=O)c2cc3c(=O)n(C)c4ccccc4c3s2)C1 (stereo not given)
    5%	?
CC(C)CC(CNc1ccc2nnnn2n1)N1CCCC1 (stereo not given)
    -6%	-3%
CCOC(=O)c1noc2ncn(CC(=O)Nc3ccc(F)cc3Cl)c(=O)c12
    -10%	-12%
O=c1[nH]nc(-c2ccco2)c2c1Nc1nnnn1C2c1ccc(Cl)cc1 (stereo not given)
    0%	0%
Cn1nnnc1-c1cccc(NC(=O)c2ccc3[nH]c4c(c3c2)CCCC4)c1
    2%	0%
COCCN1C(=O)c2ccccc2C(C(=O)Nc2ccc(F)cc2)C12CCCC2 (stereo not given)
    -6%	-5%
O=c1[nH]c(=O)n(CC2CCCO2)c2nccc(-c3ccc(-c4ccccc4)cc3)c12 (stereo not given)
    -1%	0%
COc1ccc(Cc2nc3ccc(C(=O)NCc4ccccc4Cl)cc3o2)cc1
    29%	8%
CN(C)/C=C/C(=O)c1ccc([N+](=O)[O-])cc1
    14%	22%
O=C(O)[C@H]1c2ccccc2C(=O)N(Cc2ccc(F)cc2)[C@H]1c1ccc(Cl)cc1
    7%	-11%
Cc1cccc(N2CCN(CC(=O)Nc3nncs3)CC2)c1C
    -9%	-2%
O=C(Nc1ccc(Br)cc1)c1cc2ccc(O)cc2oc1=O
    2%	88%[activator]
CC(=O)N(CCC1(CCC(C)C)CCOC(C)(C)C1)Cc1ccco1 (stereo not given)
    3%	-8%
O=C(c1cccn1-c1nnc(N2CCCC2)s1)N1CCN(c2ccc(Cl)cc2)CC1
    -12%	17%
COc1ccc(CCNC(=O)c2cnn(-c3cccc(C)c3)c2C2CCN(C(=O)OC(C)(C)C)CC2)cc1OC
    5%	-11%
CCN(Cc1ccccc1)C1=CC(=O)OC12CCCCC2
    -5%	-5%
COCCNC(=O)c1c(C)oc2nc(C)nc(N3CCOCC3)c12
    -6%	-17%
Cc1[nH]c2ccc(C(=O)N3CCN(C)CC3)cc2c1C
    7%	111%[activator]
Cc1cccc(C(=O)O)c1NS(=O)(=O)c1ccc(S(=O)(=O)N2CCCC2)cc1
    -10%	-16%
CC(C)c1nn2c(=O)cc(COC(=O)c3cccc(NC(=O)COc4ccc(F)cc4)c3)nc2s1
    -4%	57%[activator]
Cc1nc(OCC(=O)Nc2ccc(C(C)C)cc2)c2ccccc2n1
    -8%	-8%
Clc1ccc(-c2noc(CNc3ccc(Br)cc3)n2)cc1
    -6%	29%
CC(=O)N1CCC(N(Cc2ccc(C)o2)C(=O)Nc2ccc(C)cc2)CC1
    8%	22%
O=C(/C=C/c1ccc(-c2ccccc2)cc1)c1ccccc1
    16%	187%[activator]
Cc1nc(SCC(=O)Nc2ccc(Cl)cc2)c(C#N)c2c1CCCC2
    10%	31%[activator]
Cc1ccc(Oc2ccc(C(=O)O)cc2)cc1C
    11%	209%[activator]
CC1CCc2[nH]c3ccc(C(=O)Nc4ccc(F)cc4)cc3c2C1 (stereo not given)
    0%	187%[activator]
O=C(Nc1nc(-c2ccccc2Cl)cs1)c1ccc(Cl)c(N2CCCC2=O)c1
    -23%	59%[activator]
CCCCn1nc(C(=O)NCc2ccccn2)c2ccccc2c1=O
    9%	-10%
CS(=O)(=O)Oc1ccc2c(=O)c(-c3ccccc3)coc2c1
    -4%	202%[activator]
O=C(c1cc2ccccc2oc1=O)N1CCN(c2cccc(Cl)c2)CC1
    -8%	1%
Cc1cc(C(=O)CCC(=O)O)c(C)s1
    -1%	6%
CCOc1ccc(N/C=C/C(=O)C23CC4CC(CC(C4)C2)C3)cc1
    -2%	24%
CC(NC(=O)CCn1nc(-c2ccccc2)c2ccccc2c1=O)c1ccccc1 (stereo not given)
    2%	-3%
CC(=O)c1cccc(NC(=O)CSc2nnc3ccc(-c4ccc(Cl)cc4)nn23)c1
    -3%	-11%
Cc1c(C(=O)N(Cc2ccco2)Cc2ccccc2Cl)oc2ccc(F)cc12
    5%	-11%
O=C(CSc1nc2ccccc2o1)N1CCCCC1
    0%	131%[activator]
CC1(C)CC(=O)c2c(oc3c(Cl)cc(NS(=O)(=O)c4ccc(Cl)cc4)cc23)C1
    -2%	-14%
Cc1ccc(CN2C(=O)N(c3ccc(F)cc3)C(=O)C2CC(=O)Nc2ccc(Cl)cc2)cc1 (stereo not given)
    51%[activator]	-9%
Cc1cccc(C(=O)NCC(c2cccs2)c2c[nH]c3ccccc23)n1 (stereo not given)
    0%	13%
N#Cc1ccc(C2Nc3ccccc3C3OCCCC23)cc1 (stereo not given)
    0%	0%
Cc1ccccc1OCCN(C)C(=O)Cc1c[nH]c2ccccc12
    14%	-5%
Cc1ccc(-n2ncc(C(=O)NCCc3ccccc3)c2C2CCN(C(=O)OC(C)(C)C)CC2)c(C)c1
    15%	23%
CSc1ccc(-c2noc(Cn3cnc4c(oc5ccccc54)c3=O)n2)cc1
    -5%	-13%
Cc1ccc(C(=O)Nc2nc3n(n2)C(c2ccc(F)cc2)C=C(c2ccccc2)N3)cc1 (stereo not given)
    -4%	11%
CCC(C)(C)NC(=O)C(C)Sc1ccc(O)cc1 (stereo not given)
    2%	5%
Cc1cccc2sc(N(Cc3cccnc3)C(=O)C3COc4ccccc4O3)nc12 (stereo not given)
    -10%	-17%
CC1(C)CC(NC(=O)C2CCN(S(=O)(=O)c3ccccc3)CC2)CC(C)(C)N1
    -6%	-6%
CCc1ccccc1NC(=O)CC(C)n1nc(C)cc1C (stereo not given)
    -6%	-10%
COc1cc(/C=C(\C#N)c2nc3cc(C)c(C)cc3[nH]2)ccc1OCc1ccccc1
    9%	31%
CC(C)(C)c1nnc(Nc2ccc(Cl)c(Cl)c2)[nH]c1=O
    -5%	18%
CC(=O)Nc1ccc(S(=O)(=O)N2CCC(n3c(C(F)(F)F)nc4cccnc43)CC2)cc1
    4%	-12%
Cc1ccc(CNC(=O)CSc2nc3n[nH]c(C)c3c(=N)n2-c2cccc(C)c2)cc1
    142%[activator]	3%
COc1cccc(-c2nnc3n(Cc4ccc(F)cc4)c(=O)c4ccccc4n23)c1
    5%	-11%
COC(=O)C1CCN(CC(=O)N(C)CC(=O)Nc2ccc(Cl)c(C(F)(F)F)c2)CC1
    -4%	2%
O=C(/C=C/Nc1ccc(Cl)c(C(F)(F)F)c1)c1ccccc1
    10%	171%[activator]
CCOC(=O)c1c(C)oc2ccc(N(C(=O)c3ccncc3)S(=O)(=O)c3ccc(F)cc3C)cc12
    106%[activator]	27%

Exported with each value named: two of the compounds above
Cc1ccc(CN2C(=O)N(c3ccc(F)cc3)C(=O)C2CC(=O)Nc2ccc(Cl)cc2)cc1 (stereo not given)
- 2A Renilla = 51%[activator]
- 2A firefly = -9%
Cc1cccc(C(=O)NCC(c2cccs2)c2c[nH]c3ccccc23)n1 (stereo not given)
- 2A Renilla = 0%
- 2A firefly = 13%

Carrying on:
Each structure is followed by: 2A Renilla	2A firefly
CC1=C(C(=O)Nc2ccccc2)C(c2ccc(C(C)(C)C)cc2)NC(=S)N1 (stereo not given)
    -8%	-15%
CCc1ccc(OC(=O)c2ccc(OC)c(I)c2)c(Br)c1
    0%	0%
CCc1nnc(SCC(=O)Nc2ccccc2OC)n1-n1cccc1
    -12%	4%
Cc1ccc(NC(=O)CN(C)C(=O)C(C)N(C)Cc2ccccc2F)cc1 (stereo not given)
    -1%	2%
COc1ccc(-c2nc(-c3ccc(F)cc3)cs2)cc1
    41%[activator]	291%[activator]
Cc1cc(C)c2oc(=O)cc(CN3CCN(CCO)CC3)c2c1
    19%	0%
O=C(O)c1ccc(COc2ccc(Cl)cc2)s1
    -1%	0%
COc1ccc(NC(=O)c2oc3ccccc3c2NC(=O)c2nn(-c3cccc(C)c3)ccc2=O)cc1
    0%	0%
CCCc1c(C(=O)OCC)cnc2nc(-c3cccnc3)nn12
    1%	27%
N#Cc1ccccc1COC(=O)COc1ccc(C2SCCCS2)cc1
    8%	3%
CCCCN(CC)c1ccc(NS(=O)(=O)c2ccc3c(c2)CCCC3)cc1C(=O)O
    35%[activator]	7%
Cc1cc(C)c(NC(=O)CSc2nccn2Cc2ccco2)c(C)c1
    7%	76%[activator]
CCOC(=O)Cn1c(=O)oc2cc(S(=O)(=O)NCc3ccc(F)cc3)ccc21
    1%	8%
COc1ccc(CC(=O)N2CCc3cc(OC)c(OC)cc3C2COc2ccc(F)cc2)cc1 (stereo not given)
    19%	4%
O=C(Nc1c2c(nn1-c1ccc(Cl)cc1)CS(=O)(=O)C2)c1cccc(F)c1
    -3%	-14%

Exported with each value named: part of the list above.
Cc1ccc(NC(=O)CN(C)C(=O)C(C)N(C)Cc2ccccc2F)cc1 (stereo not given)
- 2A Renilla: -1%
- 2A firefly: 2%
COc1ccc(-c2nc(-c3ccc(F)cc3)cs2)cc1
- 2A Renilla: 41%[activator]
- 2A firefly: 291%[activator]
Cc1cc(C)c2oc(=O)cc(CN3CCN(CCO)CC3)c2c1
- 2A Renilla: 19%
- 2A firefly: 0%

Look-ups from above:
`Cc1cc(C)c(NC(=O)CSc2nccn2Cc2ccco2)c(C)c1` | 2A Renilla: 7%
`O=C(O)c1ccc(COc2ccc(Cl)cc2)s1` | 2A Renilla: -1%

Following part:
| molecule | 2A Renilla | 2A firefly |
| --- | --- | --- |
| CCC(C)N1CCC(CN)C1 (stereo not given) | 11% | 18% |
| Cn1cc(S(=O)(=O)N2CCC(C(=O)Nc3cccc(F)c3)CC2)cc1C(N)=O | -9% | -11% |
| Cc1ccc(C(=O)NCC(c2ccco2)S(=O)(=O)c2ccccc2)cc1C (stereo not given) | 14% | 24% |
| CC1=C(C(=O)Nc2ccc(C)cc2C)C(c2ccc[nH]2)n2ncnc2N1 (stereo not given) | -3% | -2% |
| O=C(O)/C=C\C(=O)O | -14% | -20%[11.5 µM] |
| COc1cc(CN2CCN(S(=O)(=O)c3ccc(F)cc3)CC2)cc(OC)c1OC | -1% | 0% |
| O=C(O)c1cccc2[nH]ccc12 | 3% | 25% |
| NC(N)=NCc1ccc(CN2CCCC2)cc1 | 18% | 10% |
| NC(=O)c1cccc(C(=O)N2CCC(c3nc4ccccc4o3)CC2)c1 | -1% | -5% |
| C=CCSc1nc(-c2ccccc2)cc(C(F)(F)F)c1C#N | 8% | 7% |
| CCc1cccc(C)c1NC(=O)CSc1nnc(-c2cc3cccc(OC)c3o2)n1N | 0% | 15% |
| Cc1cc(C)c2c(CN3CCN(Cc4ccccc4)CC3)cc(=O)oc2c1C | -7% | -3% |
| CCN(CC(=O)NC(C)C)C(=O)c1ccc(SC(C)C)cc1 | -3% | 10% |
| CCOc1ccc(C(=O)C(C)OC(=O)Cn2cnc3ccccc3c2=O)cc1 (stereo not given) | -3% | 0% |
| C[C@H]1C[C@H]2[C@@H]3CCC4=CC(=O)C=C[C@]4(C)[C@@]3(Cl)[C@@H](O)C[C@]2(C)[C@@]1(O)C(=O)CO | 16% | 1% |
| CCC1CCCCN1Cc1nc2c(c(=O)n(C)c(=O)n2C)n1CC(N)=O (stereo not given) | 10% | 8% |
| C=CCN(CC#CC(=C)C)Cc1ccccc1 | 6% | 12% |
| CCc1ccc(NC(=O)CC2C(=O)N(c3cccc(OC)c3)C(=O)N2C2CCCC2)cc1 (stereo not given) | 0% | -1% |
| COCCN(Cc1ccco1)C(=O)c1nn(Cc2ccccc2)c(=O)c2ccccc12 | 89%[activator] | -15% |
| COc1ccc(OCCOC(=O)c2nn(C)c(=O)c3ccccc23)cc1 | -32% | -28% |
| Cc1ccccc1Cn1c(C)c(CNCc2ccccc2)c(C(=O)O)c1C | 47%[activator] | -25% |
| Cc1ccc2sc(N(Cc3cccnc3)C(=O)c3ccc(C#N)cc3)nc2c1C | 16% | 19% |
| CN(C)C(=O)c1cccc(NC(=O)c2cc(Br)c(Br)s2)c1 | 20% | 139%[activator] |
| CCC(CO)NC(=O)c1nc(-c2ccc3[nH]ccc3c2)no1 (stereo not given) | 0% | 150%[activator] |
| O=C(COC(=O)C(c1ccccc1)c1ccccc1)Nc1ccc(N2CCOCC2)cc1 | 1% | 13% |
| CSc1nc2c(c(=O)n(Cc3ccccc3)c(=O)n2C)n1Cc1ccccc1 | -3% | 2% |
| O=C(NCc1ccccc1)C(=O)Nc1c2c(nn1-c1ccccc1)CSC2 | -10% | -18% |
| S=C(NCCc1ccccc1)N/N=C/c1ccccc1Br | 30% | 0% |
| Cc1ccccc1C(=O)Nc1ccc2nc(N3CCN(C4CCCCC4)CC3)cc(C(=O)O)c2c1 | -8% | 1% |
| CC(C)=CC(=O)Nc1ccccc1SC1CCCC1 | 21% | 15% |
| Cc1nc(-c2ccccc2)sc1CCNC(=O)C(=O)Nc1ccc2c(c1)OCCO2 | 1% | -6% |
| Cc1ccc(S(=O)(=O)c2nnn3c2nc(NCc2ccc(F)cc2)c2sccc23)cc1C | 0% | -30% |
| COc1cc(C2C3=C(CCCC3=O)Nc3nc(SC)nn32)ccc1O (stereo not given) | -1% | 7% |
| Cc1ccc(C(=O)OCCOc2ccccc2Cl)cc1O | 21% | 0% |

A portion of the library. The share of hits here may be higher or lower than overall.
